# KCNQ2 enhance = potentiators of rat KCNQ2 potassium channel | CHO-K1 KCNQ2, FluxOR thallium flux fluorescence; stronger effect = higher value | B-score at 10 µM | actives 0.54% (n = 310,000);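 active = fluorescence ratio B-score at least 3 SD of library B-scores, with initial fluorescence B-score within 3 SD, cut at about 5.3 in these data; same plate scores as AID 2156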;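 note: B-score of peak minus minimum over baseline fluorescence ratio after K+ and Tl+ stimulus; positive B-score means potentiation of KCNQ2 with more thallium influx and brighter signal; only the inactives scoring about 0 or higher are listed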
# Target sequence (O88943 whole entry, looked up): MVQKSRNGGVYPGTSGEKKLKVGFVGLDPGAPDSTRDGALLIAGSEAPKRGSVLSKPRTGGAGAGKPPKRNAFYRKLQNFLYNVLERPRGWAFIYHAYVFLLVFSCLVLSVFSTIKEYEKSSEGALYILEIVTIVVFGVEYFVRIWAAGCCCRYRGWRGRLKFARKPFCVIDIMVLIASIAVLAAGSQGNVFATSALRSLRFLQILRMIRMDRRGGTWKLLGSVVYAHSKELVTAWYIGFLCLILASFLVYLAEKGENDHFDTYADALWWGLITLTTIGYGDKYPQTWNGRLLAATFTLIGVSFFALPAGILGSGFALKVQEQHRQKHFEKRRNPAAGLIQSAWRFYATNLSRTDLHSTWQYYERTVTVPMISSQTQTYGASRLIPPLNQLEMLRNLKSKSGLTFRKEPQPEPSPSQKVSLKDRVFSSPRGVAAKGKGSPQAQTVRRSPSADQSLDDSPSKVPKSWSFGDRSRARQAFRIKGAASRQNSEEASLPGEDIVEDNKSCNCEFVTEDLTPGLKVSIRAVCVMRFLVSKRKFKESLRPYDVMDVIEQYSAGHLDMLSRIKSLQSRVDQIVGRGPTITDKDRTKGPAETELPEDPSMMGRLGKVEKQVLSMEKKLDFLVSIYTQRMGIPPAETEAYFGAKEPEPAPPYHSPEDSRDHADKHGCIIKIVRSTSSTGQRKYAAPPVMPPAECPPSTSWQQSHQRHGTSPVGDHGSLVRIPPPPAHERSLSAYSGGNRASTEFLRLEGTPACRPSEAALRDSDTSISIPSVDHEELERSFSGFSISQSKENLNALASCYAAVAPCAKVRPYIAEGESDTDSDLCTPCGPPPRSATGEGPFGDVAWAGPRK
# KCNQ2 enhance baseline = also measured in KCNQ2 enhance; calls as there; B-score; compound at 10 µM; measured here: initial fluorescence intensity artifact check;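 brightness before thallium and not channel activity; 0 = typical well and far values either way flag optical interference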
# * = called active by the depositor. Not all compounds are listed; count on the stated rates, not on these rows.
nr	smiles	KCNQ2 enhance	KCNQ2 enhance baseline
1	CCOC(=O)c1cncc(NC(=O)c2ccccc2)c1	0.05	1.8
2	CN(Cc1nccn1C)C(=O)CCc1nnc(CCC2CCCCC2)o1	0.83	-1
3	COc1ccc(-n2c(C)cc(/C=C3\C(=N)N4N=C(CC(=O)N5CCOCC5)SC4=NC3=O)c2C)cc1	0.01	-0.83
4	Cn1c(=O)c2c(ncn2CC(=O)OCC(=O)Nc2cccc(Cl)c2)n(C)c1=O	0.73	0.96
5	CCNS(=O)(=O)c1ccc(NC(=O)Nc2ccc3c(c2)OCO3)cc1	0.7	-1.2
6	COc1cccc(C2=NOC(C(=O)NC3CCCCC3)C2)c1 (configuration not stated)	1.1	-1.4
7	O=C(NCCCn1ccnc1)C(=O)NCC(c1cccnc1)N1CCN(c2ccc(F)cc2)CC1 (configuration not stated)	0.03	1.5
8	CC1CCCC(C)N1C(=O)COC(=O)CCc1nc2ccccc2c(=O)[nH]1 (configuration not stated)	0.34	0.44
9	O=C1CC(SCCO)C(=O)N1c1ccc(Oc2ccccc2)cc1 (configuration not stated)	0.88	-1.5
10	CN(C)C(=O)CNC(=O)CN1C(=O)NC2(CCCc3sccc32)C1=O (configuration not stated)	0.29	2.3
11	COC(=O)C1=CN(C2CC2)C=C(C(=O)OC)C1c1ccc(C(=O)OC)cc1	0.02	-0.62
12	COc1ccc(NC(=O)c2cccc(S(=O)(=O)Nc3ccc(Br)cc3)c2)cn1	0.06	0.31
13	O=[N+]([O-])c1ccc(NC(=S)NCC(c2cccnc2)N2CCOCC2)cc1 (configuration not stated)	0.58	-1.4
14	CC(C)(C)NC(=O)C[n+]1ccc(C(N)=O)cc1	0.19	-1.1
15	O=c1ccn(-c2ccccc2)[nH]1	1.7	-0.19
16	COc1ccc(C2=NOC(C(=O)O)C2)cc1 (configuration not stated)	1	0.79
17	CN(C)C(CNC(=O)c1ccc(NS(=O)(=O)c2ccc(F)c(F)c2)cc1)c1ccccc1 (configuration not stated)	1.8	-1
18	COC(=O)C1=C(C)N=C2SC(C)C(=O)N2C1/C=C/c1ccccc1 (configuration not stated)	0.09	-0.58
19	NC(N)=NC(N)=Nc1ccc(O)cc1	0.83	1.4
20	N#Cc1cc(Cl)c(N2CCOCC2)cc1C#N	0.47	-0.84
21	CC(=O)Oc1ccc(/C=N/NC2=NS(=O)(=O)c3ccccc32)cc1	1.1	-0.98
22	CN(C)c1ccc(NC(=O)CC(NCc2ccccn2)C(=O)O)cc1 (configuration not stated)	0.62	0.31
23	Cc1c(F)cccc1NS(=O)(=O)c1ccc2c(c1)NC(=O)CO2	0.81	0.09
24	Cc1cccc(NC(=O)CN2CCc3cc4c(cc3C2)OCCCO4)c1	0.17	1.1
25	Cc1occc1-c1nnc(SCC(=O)N(C)CCC#N)n1N	0.6	-0.96
26	CC1=CC(C)C(C(=O)O)C(C(=O)N2CCN(C)CC2)C1 (configuration not stated)	0.09	-0.04
27	CC(=O)NCCOc1nc(N(C)C)nc(N(C)C)n1	0.82	-0.07
28	CSc1nsc(SCC(=O)NC2CCCCC2)n1	0.7	-1.4
29	CN(/N=C/c1ccc(C(C)(C)C)cc1)C1=NCCN1	2	-0.02
30	Cc1cc(C(=O)NCCN2C(=O)S/C(=C\c3cccs3)C2=O)ccc1[N+](=O)[O-]	0.71	2.4
31	CCN(CC)CCCNc1cc(C)nc2cc(-c3cccs3)nn12	2.3	0.84
32	O=C(Nc1cccc(O)c1)c1ccc(C(F)(F)F)cc1	3.7	0.47
33	Cc1ccc(C(=O)COC(=O)c2cccs2)cc1	1	0.27
34	Cc1cc(C)n(C(=O)CNC(=O)CCc2ccccc2)n1	1.7	-0.47
35	COC(=O)[C@H](CC(C)C)NC(=O)Nc1ccc(S(N)(=O)=O)cc1	1	-0.08
36	Cc1nc2ccccc2cc1O	2.3	-0.48
37	Cc1cc(NC(=O)c2ccc(F)cc2)n(-c2ccccc2)n1	0.9	0.69
38	CC(=O)OCC(=O)[C@H]1CC[C@H]2[C@@H]3CC=C4C[C@@H](O)CC[C@]4(C)[C@H]3CC[C@]12C	0.19	-0.39
39	CC1CCN(CCCn2c(=S)[nH]c3ccccc3c2=O)CC1	2	0.19
40	CCOC(=O)C1CCN(C(=O)COc2ccc(Cl)cc2C)CC1	0.51	-0.5
41	CC(C)=CCN1CCN(Cc2cnc(N3CCOCC3)s2)CC1CCO (configuration not stated)	2.5	0.56
42	COc1ccc(CCN2CC(C(=O)NCCc3cccnc3)CCC2=O)cc1 (configuration not stated)	0.37	1.7
43	Cn1c(=O)oc2cc(S(=O)(=O)Nc3ccccc3O)ccc21	0.03	-0.46
44	Cn1c(N2CCN(C(c3ccccc3)c3ccccc3)CC2)nc2c1c(=O)[nH]c(=O)n2C	1.5	-0.16
45	COc1ccc2sc(SCCCS(=O)(=O)O)[n+](CCCS(=O)(=O)[O-])c2c1	0.22	1.6
46	CCCc1nnc(SCC(=O)Nc2nc(C)cs2)n1CCOC	2.2	1.7
47	Cc1cc(C(=O)OCC(=O)Nc2cc(S(=O)(=O)N3CCOCC3)ccc2Cl)c(C)o1	0.31	0.01
48	CCc1ccc(OCc2nnc(NC(=O)c3cccs3)s2)cc1	1.7	-1.5
49	C/C(=N\NC(=O)Cc1cccc2ccccc12)c1ccncc1	0.08	-0.34
50	COc1ccc(C(=O)N(CC2CCCO2)C(C(=O)NC2CCCC2)c2ccc(Cl)cc2)cc1OC (configuration not stated)	0.42	0.32
51	O=C(O)c1ccc(F)c(S(=O)(=O)Nc2ccccc2Cl)c1	0.41	-1.4
52	Cc1cc(OCC(=O)NCc2ccncc2)c2c(C)cc(=O)oc2c1	0.07	-0.73
53	CCCCCC(=O)Nc1ccc2ccccc2c1	5.2	-1.2
54	COc1ccc(NC(=O)c2cc(N3C(=O)C4C5CCC(C5)C4C3=O)ccc2Cl)c(OC)c1 (configuration not stated)	0.52	-0.16
55	O=C(OCc1nnc(-c2ccccc2)o1)c1cc(=O)c2ccccc2o1	0.66	0.79
56	Cc1csc(C(C#N)C(=O)c2cc3ccccc3o2)n1 (configuration not stated)	0.9	-0.4
57	Cc1ccc(S(=O)(=O)N2CC[C@@H]2C(=O)O)cc1	0.35	1.8
58	CC(=O)Nc1ccc(S(=O)(=O)c2cc(O)ccc2O)cc1	0.95	0.29
59	Cc1ccc(C(=O)Nc2ccc3ncccc3c2)cc1	1.5	-0.8
60	Cn1c(Nc2ccc(F)cc2)nc2ccccc21	1.1	0.66

# 3 records drawn at random from those above:
nr	smiles	KCNQ2 enhance	KCNQ2 enhance baseline
52	Cc1cc(OCC(=O)NCc2ccncc2)c2c(C)cc(=O)oc2c1	0.07	-0.73
33	Cc1ccc(C(=O)COC(=O)c2cccs2)cc1	1	0.27
31	CCN(CC)CCCNc1cc(C)nc2cc(-c3cccs3)nn12	2.3	0.84

# The list continues:
nr	smiles	KCNQ2 enhance	KCNQ2 enhance baseline
61	Cc1csc(NC(=O)c2ccc(Br)s2)n1	0.69	0.96
62	CCOC(=O)c1sc(NC(=O)c2ccncc2)c(C#N)c1C	0.3	0.01
63	CC(C)(C)n1nnnc1C(c1cccnc1)N1CCN(c2cccc(C(F)(F)F)c2)CC1 (configuration not stated)	1.6	-0.33
64	O=C(CN1CCN(Cc2ccccc2Cl)C1=O)NC1CCCCCC1	0.19	-0.67
65	Cc1c(CC(=O)NCCCCCC(=O)O)c(=O)oc2c(C)c3oc4c(c3cc12)CCCC4	0.52	-0.56
66	Cc1cc(N2C(=O)CC(Cc3ccccc3)C2=O)no1 (configuration not stated)	0.13	-0.43
67	CC1CC(=O)NN=C1c1ccc(N(C)C)c([N+](=O)[O-])c1 (configuration not stated)	0.49	0.44
68	CC(NC(=O)C1CCCN(S(=O)(=O)c2ccc(-n3cnnn3)cc2)C1)c1ccc(F)cc1 (configuration not stated)	0.43	-1.4
69	N#Cc1ccccc1OCC(=O)NCCNC(=O)COc1ccccc1C#N	2.3	1.4
70	Cc1ccc(C2=NN(C(=O)CCCC(=O)O)C(c3ccco3)C2)cc1 (configuration not stated)	0.4	-0.15
71	c1ccc2c(c1)ncn2-c1ccc(-c2ccnc3ncnn23)cc1	0.48	0.05
72	CSc1nc(Oc2cccc(C(F)(F)F)c2)cc(C(F)(F)F)n1	0.04	-1.4
73	COc1ccc(C(=O)NCc2ccc(-c3nc4ccccc4s3)cc2)cc1OC	0.04	-0.1
74	CCOC(=O)C1=C(C)N=C2c3ccccc3C(=O)C2C1c1ccccc1 (configuration not stated)	0.03	-0.67
75	COc1ccc(/C=N/NC(=O)CNC(=O)c2ccc(S(=O)(=O)N3CCCC3)cc2)c(OC)c1	0.21	-1.2
76	Cc1cc(C)n(C(=O)c2ccc(S(=O)(=O)N3CCCC3)cc2)n1	0.47	0
77	Cc1ccc(C(=O)N2CCN(c3ccc(NC(=O)CSc4ccc(Cl)cc4)cc3)CC2)cc1	1.3	-2.5
78	CCCn1c(SCCc2ccccc2)nc2c1c(=O)[nH]c(=O)n2C	2.2	-0.97
79	COc1ccc(/C=N/NC(=S)NCCc2ccccc2)cc1	0.68	-0.07
80	CCOc1ncccc1C(=O)OCC(=O)c1ccc(Cl)s1	0.27	-0.44
81	CC(=O)NC1=NN(C(C)=O)C(c2ccccn2)S1 (configuration not stated)	0.35	-0.83
82	N#Cc1c(/N=C/c2cc3ccccc3s2)sc2c1CCC2	1.6	0.68
83	Fc1cccc(Cl)c1CNCCCSc1ncccn1	0.33	1.8
84	CC(C)CN(CCCNC(=O)CN1C(=O)COc2ccc(S(=O)(=O)N3CCC(C)CC3)cc21)CC(C)C	1.4	-0.89
85	COc1ccc(Nc2nnc(-c3ccc(C)cc3)c3ccccc23)cc1C(=O)N1CCCCC1	1	-0.58
86	CN(C)C(=O)COC(=O)c1ccccc1Nc1ccc(SC(F)F)cc1	0.54	-0.9
87	CCCNC(=O)c1noc2c1CCc1ccccc1-2	0.57	0.16
88	Cc1ccc(OCCN2C(=O)OC(C)(C)C2(C)O)cc1 (configuration not stated)	0.11	0.64
89	Cc1cnc(NC2=NCCC2)s1	0.65	0.09
90	CCN1CCN(Cc2nc3c(c(=O)n(C)c(=O)n3C)n2Cc2cccc3ccccc23)CC1	0.23	-1.7

# Reformatted: results already given.
# The line under a structure holds: KCNQ2 enhance | KCNQ2 enhance baseline
87. CCCNC(=O)c1noc2c1CCc1ccccc1-2
→ 0.57 | 0.16
68. CC(NC(=O)C1CCCN(S(=O)(=O)c2ccc(-n3cnnn3)cc2)C1)c1ccc(F)cc1 (configuration not stated)
→ 0.43 | -1.4
81. CC(=O)NC1=NN(C(C)=O)C(c2ccccn2)S1 (configuration not stated)
→ 0.35 | -0.83
65. Cc1c(CC(=O)NCCCCCC(=O)O)c(=O)oc2c(C)c3oc4c(c3cc12)CCCC4
→ 0.52 | -0.56
90. CCN1CCN(Cc2nc3c(c(=O)n(C)c(=O)n3C)n2Cc2cccc3ccccc23)CC1
→ 0.23 | -1.7
70. Cc1ccc(C2=NN(C(=O)CCCC(=O)O)C(c3ccco3)C2)cc1 (configuration not stated)
→ 0.4 | -0.15

# Carrying on.
nr	smiles	KCNQ2 enhance	KCNQ2 enhance baseline
91	CCOc1cccc(/C=C/C(=O)O)c1	0.15	-0.35
92	Cc1ccc(S(=O)(=O)N2C3C=CC(C3)C2C(=O)O)cc1 (configuration not stated)	0.05	-0.04
93	CC(=Nc1ccccc1)C1=C(O)CSC1=O	0.96	0.18
94	Cc1ccc(C(=O)Oc2oc(-c3ccco3)nc2C=Nc2ccc(Cl)cc2)cc1	0.24	-0.73
95	COC(=O)c1ccc(NC(=O)Nc2ccccc2C)cc1	1.4	-0.39
96	Cc1nnc(N2CCC(C(=O)N3CCCCCC3)CC2)c2nn(-c3ccc(Cl)cc3)c(C)c12	0.83	-1.2
97	O=S1(=O)CC(O)C(NCCO)C1 (configuration not stated)	1	-2.9
98	COc1ccc(CN2C(=O)c3cccnc3C2=O)cc1S(=O)(=O)N1CC(C)CC(C)C1 (configuration not stated)	1.1	-0.9
99	CC(=O)COc1ccc2cc(-c3ccccc3)c(=O)oc2c1	0.18	0.12
100	COc1ccc(S(=O)(=O)c2c(O)c3ccc(C(=O)Nc4ccc(F)cc4)cc3[nH]c2=O)cc1	0.06	0.41
101	CCC(c1nnnn1C(C)(C)C)N1CCN(C(=O)c2ccco2)CC1 (configuration not stated)	0.37	0.06
102	Cn1c(=O)c2sccc2n(Cc2ccccc2)c1=O	0.81	0.58
103	CCN(CC)CCOC(=O)c1ccc(NC(=O)c2ccc(Cl)c(S(=O)(=O)N3CCCCCC3)c2)cc1	2.1	0.01
104	Cc1cc(-c2cc(C(=O)NCc3ccccc3)on2)nc(NCC2CC2)n1	1	-0.25
105	O=[N+]([O-])c1cc(/C=N/n2cnnc2)ccc1N1CCCC1	2.5	-1
106	CCN(Cc1ccccc1)C(=S)NC(=O)c1ccccc1Br	8.6*	1.7*
107	COc1ccccc1OCCn1c(C)c(C=O)c2ccccc21	0.22	-0.77
108	Cc1ccc(/C=C(\NC(=O)c2ccccc2)C(=O)N2CCCCC2)cc1	0.05	-0.41
109	COc1ccccc1NC(=O)Cc1nc(CCl)cs1	0.06	-0.53
110	CCOC(=O)N1CCN(C(=O)CSc2ccc(-c3ccccc3OC)nn2)CC1	0.2	-0.02
111	O=C(Nc1cccc(F)c1)NC1(C(=O)NCC2CCCO2)CCCCC1 (configuration not stated)	2.8	2
112	CCOC(=O)C(NCCc1ccccc1F)(NC(=O)CC)C(F)(F)F (configuration not stated)	0.66	2.1
113	COc1ccc(C(=O)NC(=O)Nc2cc(C)ccn2)cc1	3	-3
114	CNC(=O)c1ccc(-c2sc3nc(N4CCOCC4)c4c(c3c2N)CC(C)(C)OC4)o1	0.03	-0.11
115	COc1ccc(OC)c(N(CC(=O)NCCSCc2ccco2)S(=O)(=O)c2ccccc2)c1	0.03	-0.2
116	CC(Oc1ccccc1)C(=O)Nc1cc(Cl)ccc1-n1cncn1 (configuration not stated)	0.65	0.1
